Six1-Eya2 inh: inhibitors of human Six1/Eya2 interaction. Q15475+O00167. AlphaScreen GST-Six1/His-Eya2 binding, biochemical; active compounds read low; control for the full effect not named in the record. activity change, % (test concentration not listed). actives 0.56% (n = 360,000). AID 651725; in the data active = activity change below about -65%; inconclusive = about -30% to -65%; inactive = above about -30%; note: % is set by controls: 0 for no effect and ±100 for the full control effect
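AlphaScreen with GST-Six1 and His-Eya2 (5X mix: 250 nM and 500 nM), glutathione donor and nickel acceptor beads; buffer 50 mM Tris pH 8.0, 300 mM NaCl, 1 mM TCEP; 1 h at 37 C in the dark.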
gsp antagonist: antagonists of gsp mutant (McCune-Albright syndrome). AID 624288. actives 0.4% (n = 340,000). Potency, µM (doses to about 76.9 µM), for inactives: at the highest dose activity change, negative = inhibition, hits mostly inhibitors. gsp-mutant cells, cAMP HTRF, 30 min; control for the full effect not named in the record; active = falling curve of any shape with a large fitted effect; inconclusive = falling curve, mostly with a smaller effect; inactive = flat or rising curve; cell line not stated here;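 note: intracellular cAMP measured with PDE inhibitor Ro 20-1724 present during compound exposure; potency is the fitted concentration of half-maximal effect; % is set by controls: 0 for no effect and ±100 for the full control effect; nearly all actives have a fitted effect of over 65% in size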
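HTRF cAMP read-out (cAMP-d2 plus anti-cAMP antibody-K in lysis buffer, 30 min RT). Before lysis, cells are exposed to compounds with […] for 30 min at 37C in DPBS containing Ca/Mg, BSA and Tween 20.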
D2 PAM: potentiates the human D2 dopamine receptor allosterically; DiscoveRx D2 beta-arrestin cells, luminescence, 90 min; 100% = 57 uM dopamine signal; potentiation, % (concentration not given with the values); actives 0.23% (n = 360,000); AID 624464; active = potentiation of 50% or more; inconclusive = 30% to 50%; inactive = 30% or less;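 note: compound concentration not given in the record; tested on top of an EC20 dose of dopamine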
Target sequence (P14416 whole entry, looked up): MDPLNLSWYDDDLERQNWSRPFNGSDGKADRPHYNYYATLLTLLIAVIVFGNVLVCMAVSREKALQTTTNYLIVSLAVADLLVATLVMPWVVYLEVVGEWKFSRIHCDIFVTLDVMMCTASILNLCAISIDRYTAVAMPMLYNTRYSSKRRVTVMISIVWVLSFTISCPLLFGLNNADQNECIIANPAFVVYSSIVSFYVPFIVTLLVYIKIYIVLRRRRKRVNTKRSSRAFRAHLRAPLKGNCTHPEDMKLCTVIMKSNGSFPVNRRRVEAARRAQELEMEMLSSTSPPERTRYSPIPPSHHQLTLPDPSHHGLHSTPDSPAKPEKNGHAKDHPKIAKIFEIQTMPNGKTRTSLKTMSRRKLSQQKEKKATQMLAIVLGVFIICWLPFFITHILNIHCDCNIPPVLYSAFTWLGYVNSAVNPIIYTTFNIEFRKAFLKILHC
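PathHunter D2 cells, attached overnight at 37 deg C, received compound in DMSO plus dopamine at EC20 (50 nM final) for 90 min at 37 deg C. Beta-arrestin recruitment was read as luminescence after 1 h with detection reagent at ambient temperature.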
D2 agonist: activates the human D2 dopamine receptor; DiscoveRx PathHunter D2 beta-arrestin, luminescence, 90 min; 100% = 57 uM dopamine signal; activation, % (concentration not given with the values); actives 0.084% (n = 360,000); AID 624465; in the data active = activation above about 40%; inconclusive = about 15% to 40%; inactive = below about 15%; note: compound concentration not given in the record; the text of the record calls up to 30% inactive
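DiscoveRx PathHunter D2 beta-arrestin cells (2,100/well) attached overnight, then compound-stimulated 90 min at 37 C in HBSS/10 mM HEPES/0.1% Tween-20 buffer; beta-galactosidase complementation read by luminescence after 1 h at ambient temperature. Dopamine 57 uM final (EC100) as control.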
CtBP-E1A inh: inhibitors of CtBP/E1A interaction. activity change, % (test concentration not listed). AlphaScreen GST-E1A/His-CtBP binding, 1536-well; active compounds read low; control for the full effect not named in the record. actives 0.49% (n = 340,000); in the data active means activity change below about -65%; inconclusive means about -30% to -65%; inactive means above about -30%; note: % is set by controls: 0 for no effect and ±100 for the full control effect
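AlphaScreen with 125 nM GST-E1A and 125 nM His-CtBP (5X stocks) in Tris pH 8.0, 300 mM NaCl, BSA, Tween 20, TCEP. Compounds preincubated 2 h at 37 deg C, then glutathione donor/nickel acceptor beads added for 1 h at 37 deg C in dark.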
gsp ag: gsp mutant agonism. Potency, µM (top dose mostly 76.9 µM), without a hit: top-dose activation (cAMP increase), most hits filed as activators. gsp mutant cells, cAMP HTRF, 30 min; control for the full effect not named in the record. actives 0.13% (n = 340,000); active = well fitted activation curve with a large enough effect; inconclusive = small, poorly fitted or top-dose-only effect, or another doubt; inactive = no such curve, though single readings can be large or run the other way; cell line not stated here;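 note: phosphodiesterase inhibitor Ro 20-1724 added with compounds to block cAMP breakdown; potency is the fitted concentration of half-maximal effect; nearly all actives have a fitted effect of over 60% in size; about a fifth of the inactives were tested at one dose only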
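Cells in DMEM/10% FBS with G418 were pretreated with compounds in DMSO plus […] (300 uM stock) for 30 min at 37C. cAMP was measured by HTRF (cAMP-d2 plus anti-cAMP antibody-K) after 30 min at room temperature.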
* marks the source's active call; other numbers are inactive results; ? = inconclusive; . = no result given; & = joins results of further samples; [ ] = dose if it differs, or a comment.

SMILES	Six1-Eya2 inh	gsp antagonist	D2 PAM	D2 agonist	CtBP-E1A inh	gsp ag
COc1ccc(-n2c3c(c(=O)[nH]c2=O)C(C(F)(F)F)(C(F)(F)F)N=C(CC(C)C)N3)cc1	1	-11%	-7	-2.1	4	-36%
O=S1(=O)CC2N=C(N(Cc3c(F)cccc3Cl)c3ccccc3F)SC2C1 (stereo not given)	-2	-4%	-19	-3.9	2	4%
Cc1cc(Br)ccc1SCC(=O)OCC(=O)N1CCN(C(=O)c2ccco2)CC1	2	-7%	-5	-6.8&-2.2	-4	-47%[inhibitor]
NC(=O)C(NC(=O)OCc1ccccc1)c1ccccc1 (stereo not given)	6	11%	-9	-2.5	3	.
COCCNC(=O)CN1CCN(S(=O)(=O)c2ccc3c(c2)CCCC3)CC1	2	-5%	3	-2.0	.	-2%
Nc1ccn(CCCN2CCN(C(=O)C3CC3)CC2)c(=O)n1	4	.	-3	-8.5	5	-51%[inhibitor]
N=c1c(C(=O)NCc2ccc3c(c2)OCO3)cc2c(=O)n3ccccc3nc2n1Cc1cccnc1	-1	7%	5	0.3	-4	?
Cn1cnnc1Sc1ccc(CN2CCN(C3CCCC3)C(CCO)C2)o1 (stereo not given)	9	6%	-7	-4.1	1	?
Cc1cc(-c2ccccc2)nc(SCC(=O)N2CCCC2)n1	-2	-14%	-13	-4.8	3	5%
CCN(CC)S(=O)(=O)c1ccc(N2CCOCC2)c(NC(=O)c2ccc(F)cc2)c1	-1	-22%	-6	-1.7	.	10%[15.4 µM]
Cc1cc(C)cc(NC(=O)C(Sc2ncnc3ccccc23)c2ccccc2)c1 (stereo not given)	-2	-7%	-12	-11	-8	-1%
Cc1ccc(S(=O)(=O)N2CCN=C2SCc2ccccc2)cc1	11	4%	1	-2.6	14	?
COCCNC(=O)C(=O)NNC(=O)c1ccccc1OC	11	9%	4	-3.5	0	?
Cc1ccc(S(=O)(=O)N(C)c2ccc(C(=O)N(CC(C)C)C3CCS(=O)(=O)C3)cc2)cc1 (stereo not given)	3	-7%	-6	-1.9	1	?
O=C(NNC(=O)c1ccc2c(=O)n3c(nc2c1)CCC3)c1ccc(F)cc1	-15	0%	-4	2.1	-2	1%[15.4 µM]
CCOc1ccc(-c2cc(C(=O)N/N=C(\C)c3cccnc3)c3ccccc3n2)cc1	-3	10%	5	1.4	0	29%
CCOc1ccc(CCNC(=O)C2CCCN(C(=O)N(C)C)C2)cc1OCC (stereo not given)	5	-7%	2	-1.1	2	-51%[inhibitor]
CC(NC(=O)c1cccc(OC2CCN(C3CCN(C)CC3)CC2)c1)c1ccccc1 (stereo not given)	0	-1%	-9	-1.2	.	9%
CC(C)Cn1c(N)c(C(=O)COC(=O)c2ccc3c(c2)OCCO3)c(=O)n(C)c1=O	-11	-39%	19	0.8	5	?
Cc1ccc(S(=O)(=O)NC(CCc2ccccc2)CC(=O)C(C)(C)C)cc1 (stereo not given)	9	10%	-11	1.2	10	.
COc1ccc(NC(=O)Cc2c(F)c(F)c(F)c(F)c2F)cc1OC	-1	7%	-3	-5.7	10	-8%
COc1cc(-c2cc(C(=O)NCc3ccc(S(N)(=O)=O)cc3)c3ccccc3n2)cc(OC)c1OC	14	?	9	?	23	-9%[15.4 µM]
O=C(CC1CCCCC1)NCCCN1CCOCC1	5	3%	-4	-2.0	3	-21%
Cc1ccc(-c2nnc(SCC(=O)N/N=C/c3ccccc3C(=O)O)n2-c2ccc(C)cc2)cc1	-7	-9%	-11	-2.4	-15	1%
CCN(CC)C(=O)CSc1nc2c(sc(=S)n2-c2ccccc2)c(=O)n1Cc1ccco1	-15	-32%	-11	-2.1	-13	-27%
C/C(=N\Nc1nncc2ccccc12)c1ccc(OCC(=O)N(C)C)cc1	-10	-4%	-1	-3.0	-3	?
COc1ccc(CNC(=O)C2CCN(S(C)(=O)=O)CC2)c(OC)c1	4	4%	-6	-19	-13	6%
Cc1ccc(C(=O)N2CCc3ccccc32)cc1	-3	-24%	1	-3.3	-7	-11%
COC(=O)C1[C@H]2C(=O)N(Cc3cccs3)C[C@]23C=C[C@H]1O3 (stereo not given in full)	5	12%	-7	-0.9	7	1%
Cc1ccc(C)c(S(=O)(=O)NCc2ccc(C(=O)N3CCC(Cc4ccccc4)CC3)cc2)c1	-7	-9%	-2	2.0	-15	14%
Cc1ccccc1NC(NC(=O)c1cccs1)C(Cl)(Cl)Cl (stereo not given)	4	-6%	-8	0.6	7	6%
CCOC(=O)C1C(C(=O)Nc2cccc(C(F)(F)F)c2)C1C(=O)NC(C)C (stereo not given)	3	1%	-4	2.4	6	4%
COc1ccc(CN2CCNC(=O)C2CC(=O)NC2CCCCCC2)c(C)c1C (stereo not given)	-3	-13%	-15	-6.6	1	-30%[inhibitor]
COc1ccc(COC(=O)C2CCN(S(=O)(=O)c3ccc(OC)c(OC)c3)CC2)cc1	4	-18%	-12	1.3	.	-9%
CC(C)(C)c1cc(C(=O)O)nn1-c1ccccc1	8	-6%	-22	-2.5	-1	-29%
COc1cc(OC)c(NC(=O)c2ccc(F)cc2)cc1Cl	-3	-5%	-1	-5.5	-19	3%
COc1ccccc1Nc1nc(C)cc(C)n1	22	3%	-15	5.8	-20	-19%[15.4 µM]
CCOCCCNC(=O)C1CCN(C(=O)N(C)C)CC1	-1	5%	0	-1.3	11	11%
Cc1cc(N=Cc2c(O)n(-c3cccc(C(F)(F)F)c3)c(=O)c3ccccc23)no1	1	0%	-14	-2.2	18	6%
O=C(COC(=O)CNS(=O)(=O)c1cc(C(F)(F)F)ccc1Cl)NC1CC1	9	-4%	-6	1.6	.	26%
CCC1CCCCN1C(=O)CSc1nc2ncccc2[nH]1 (stereo not given)	-1	3%	-7	-2.8	.	18%
Oc1ccccc1-c1cc(C(F)(F)C(F)F)[nH]n1	-1	-25%	-8	2.4	13	24%
Cc1cccc(Nc2nc(Cl)ncc2F)c1C	4	1%	-1	-2.1	5	-41%[inhibitor]
CCOC(=O)c1nn(-c2ccc(OCC)cc2)c2nc(-c3cccc(OC)c3)c(C#N)c(=O)n12	8	3%	-11	-1.7	11	1%
COCCCn1c(SCc2nnc(-c3ccccc3)o2)nc2sc3c(c2c1=O)CCC3	1	3%	1	-0.6	4	0%
COc1ccc(NC(=O)C23CC4CC(C2)CC(c2ccccc2)(C4)C3)c(OC)c1	-13	-11%	-15	-5.1	-4	?
Cc1cccc(CC(=O)Nc2sc(C(C)C)cc2C(=O)N2CCOCC2)c1	9	2%	-3	-1.5	-2	-40%[inhibitor]
CCC(=O)c1ccc(OCC(O)CNC2CCCC2)cc1 (stereo not given)	-1	1%	-1	-2.1	2	0%
CCOc1ccc(/C=N/NC(=O)CSc2ccccn2)cc1O	-22	0%	-14	-2.9	-1	10%
CCC(C)(C)NC(=O)CN(Cc1ccc(OC)cc1)C(=O)CCC(=O)Nc1nccs1	2	0%	0	2.8	3	0%
CCCc1nc2ccc(Cl)cn2c1Cc1ccc(C)cc1	-8	.	-17	-8.0	3	.
O=S(=O)(c1ccc(NC(=S)NC2CC2)cc1)N1CCOCC1	-6	4%	-2	-4.5	0	-14%[15.4 µM]
CCc1cccc2c(C(=O)CSc3nncn3-c3ccc(OC)cc3)c[nH]c12	-1	-10%	-2	7.0	1	?
CCCCNc1ncnc2[nH]ncc12	8	5%	-13	-2.4	-2	-2%
O=C1CN(C(=O)NCC(=O)N[C@@H](C(=O)O)c2ccccc2)c2ccccc2N1	7	-3%	-3	3.7	.	0%
NC(=S)c1cnn2c(-c3cccc(C(F)(F)F)c3)ccnc12	1	3%	-8	1.0	-5	17%
CCOC(=O)c1c(C)[nH]c(C)c1S(=O)(=O)N(C)CC(=O)Nc1ccccc1F	-7	2%	-9	-1.0	.	-14%
CCOc1cc2[nH]c(=O)n(CCCC(=O)NCc3ccc(OC)cc3)c(=O)c2cc1OCC	-3	5%	-10	0.4	-3	-5%
CN(C)S(=O)(=O)c1ccc(C(=O)OCc2ccc(C#N)cc2)cc1	-1	-13%	4	4.0	4	?
CCC(C)NC(=O)Cc1ccc(-c2ccccc2)cc1 (stereo not given)	0	-4%	-7	-6.3	.	-15%

Molecules listed so far with a COOH group (3):
SMILES	Six1-Eya2 inh	gsp antagonist	D2 PAM	D2 agonist	CtBP-E1A inh	gsp ag
Cc1ccc(-c2nnc(SCC(=O)N/N=C/c3ccccc3C(=O)O)n2-c2ccc(C)cc2)cc1	-7	-9%	-11	-2.4	-15	1%
CC(C)(C)c1cc(C(=O)O)nn1-c1ccccc1	8	-6%	-22	-2.5	-1	-29%
O=C1CN(C(=O)NCC(=O)N[C@@H](C(=O)O)c2ccccc2)c2ccccc2N1	7	-3%	-3	3.7	.	0%

(list continues)
SMILES	Six1-Eya2 inh	gsp antagonist	D2 PAM	D2 agonist	CtBP-E1A inh	gsp ag
COc1cc2[nH]c(=O)n(CCC(=O)NC3CCCC3)c(=O)c2cc1OC	-14	12%	-17	-2.1	-7	0%
Cc1noc(C)c1CS(=O)(=O)c1ccc([N+](=O)[O-])cc1	2	3%	21	?	7	3%[15.4 µM]
O=C(N/N=C/c1ccc([N+](=O)[O-])s1)c1cccc(Br)c1	-4	-9%	25	3.3	-5	-7%
COc1cc(OC)cc(C(=O)Nn2cc(C(=O)Nc3ccc(F)cc3F)c3ccccc3c2=O)c1	?	-2%	-5	3.2	-13	3%[15.4 µM]
COc1cc(CCC(=O)OCC(=O)Nc2ccc(F)c(F)c2F)cc(OC)c1OC	4	-7%	-2	-2.2	3	9%[15.4 µM]
COc1ccc(CCNC(=O)c2ccc3nc(N4CCOCC4)sc3c2)cc1OC	1	-6%	5	-4.1	-10	-5%
O=C(NC(Cc1c[nH]c2ccccc12)C(=O)O)c1cccs1 (stereo not given)	13	.	-17	-0.9	-10	-5%[15.4 µM]
COC(=O)CCCC1=CC2=CC(=O)C(C)(OC(=O)c3cccs3)C(=O)C2=CN1CC(C)C (stereo not given)	-7	-2%	11	5.3	-6	.
COc1cc(OC)cc(-c2c(C#Cc3ccsc3)c3cc(-c4ccc5c(c4)OCO5)ccc3n2C)c1	0	15%	-13	-2.7	1	0%
CCOc1ccccc1NC(=O)Nc1cc(OC)ccc1OC	-1	13%	-14	-0.4	-3	-13%
CCOC(=O)CSc1nnc(-c2ccco2)n1-c1ccc(C)cc1	-1	-19%	3	-0.8	4	-31%[inhibitor]
CCN(CCn1cccn1)C(=O)c1ccc(OC2CCN(C(=O)CCOC)CC2)cc1	1	.	-8	-3.1	-8	-26%

Some of these compounds in order of the D2 PAM value, falling.
smiles,Six1-Eya2 inh,gsp antagonist,D2 PAM,D2 agonist,CtBP-E1A inh,gsp ag
COC(=O)CCCC1=CC2=CC(=O)C(C)(OC(=O)c3cccs3)C(=O)C2=CN1CC(C)C (stereo not given),-7,-2%,11,5.3,-6,.
COc1ccc(CCNC(=O)c2ccc3nc(N4CCOCC4)sc3c2)cc1OC,1,-6%,5,-4.1,-10,-5%
O=C(NC(Cc1c[nH]c2ccccc12)C(=O)O)c1cccs1 (stereo not given),13,.,-17,-0.9,-10,-5%[15.4 µM]
